Screens from PubChem BioAssay.
H5N1 CPE: MDCK cell protection from H5N1 avian flu; cytopathic effect, luminescence, 72 h; active compounds read high; no value below 0 was filed and about half of the inactive calls have no number; reference of the scale not given here; inhibition, % at 50 µM; hit rate 0.07% among 96,000; AID 740, 2007; in the data active = inhibition above about 25%
Numbers without * were called inactive; i = inactive. An excerpt; the hit share may differ from the screen's.

SMILES	H5N1 CPE
COc1ccc(-c2nnn(CC(=O)Nc3sc4c(c3C#N)CCCC4)n2)cc1	2.5
Cn1c(=O)cc(OCCCC(=O)Nc2ccc3c(c2)OCCO3)c2ccccc21	i
O=C(NCc1ccccn1)C1CCN(S(=O)(=O)N2CCCCC2)CC1	0.2
CCN1/C(=C2\OC(=S)N(C)C2=O)Sc2ccccc21	1.4
Cc1ccc(Cl)cc1N1CCN(S(C)(=O)=O)CC1	i
CN(C)C(=O)c1cc([N+](=O)[O-])cc([N+](=O)[O-])c1N(C)C	i
Cc1ccc(-n2nnnc2SCC(=O)c2cc(C)n(-c3cc(C)on3)c2C)c(C)c1	i
COc1ccccc1/C=C1/C(=N/O)C2CCN1CC2	1.7
O=c1oc2ccccc2cc1-c1csc(Cc2nc(-c3ccc(Br)cc3)cs2)n1	i
O=C(NCc1ccccc1)c1cccc(COc2cccc(Cl)c2)c1	1.8
Cc1ccc(Nc2cc(C)nc(-c3ccccc3O)n2)cc1	2.8
CCSc1nnc(NC(=O)c2ccc(C)o2)s1	i
Cc1ccc(C)c(NC(=S)N2CCC(N(C)CC3CCCO3)CC2)c1 (stereo unspecified)	0.0
CNC(=O)CSc1nnc(-c2cccs2)o1	i
CC1CCN(c2nc(-c3ccccc3)c(C#N)c(=O)[nH]2)CC1	1.4
COc1cc(/C=C2/N=C(c3ccccc3F)OC2=O)cc(Cl)c1OS(C)(=O)=O	i
Cc1ccc(C)n1-c1nccc(-c2cccs2)n1	i
COc1ccc(-n2ccnc2SCC(=O)Nc2ccccc2)cc1	0.1
COC(=O)c1cc(O)c(OCc2ccccc2)c(O)c1	i
Cc1ccc2cc(CN(CC3CCCO3)S(=O)(=O)c3cccc4nsnc34)c(=O)[nH]c2c1 (stereo unspecified)	0.1

Part of the list above, as comma-separated lines.
molecule,H5N1 CPE
CCSc1nnc(NC(=O)c2ccc(C)o2)s1,i
CC1CCN(c2nc(-c3ccccc3)c(C#N)c(=O)[nH]2)CC1,1.4
COc1cc(/C=C2/N=C(c3ccccc3F)OC2=O)cc(Cl)c1OS(C)(=O)=O,i
CNC(=O)CSc1nnc(-c2cccs2)o1,i
COC(=O)c1cc(O)c(OCc2ccccc2)c(O)c1,i

More results.
SMILES	H5N1 CPE
O=C(COC(=O)CN1C(=O)C2CC=CCC2C1=O)Nc1cc(C(F)(F)F)ccc1N1CCOCC1 (stereo unspecified)	i
CCCCC(=O)N1CC2(C)CN(C(=O)CCCC)CC(C)(C1)C2=O	0.8
CCOc1ccc(C(C)=O)cc1N1C(=O)C2C(C1=O)C1C=CC2C12CC2 (stereo unspecified)	i
CC(C)Oc1cccc(C(=O)Nc2ccccc2N2CCOCC2)c1	1.1
COc1ccc(-n2nnnc2SCC(=O)c2ccc(OC)c(OC)c2)cc1	i
O=C(NC1CS(=O)(=O)CC1NCc1ccco1)c1ccccc1 (stereo unspecified)	0.9
O=C(Nc1nccs1)c1ccc(S(=O)(=O)c2ccccc2)cc1	i
COc1ccc(OC)c(C(=O)CSc2nc3ncccc3[nH]2)c1	0.5
COc1ccc(NC(=O)Nc2ccc3nsnc3c2)cc1	2.9
C=CCc1cccc2cc(C(=O)NCc3cccnc3)c(=O)oc12	2.3
COc1cc2c(C(=O)N3CCN(C)CC3)c(C)n(C)c2cc1Br	0.7
COc1cccc(N2C(=O)C3ON(c4ccccc4)C(c4cccs4)C3C2=O)c1 (stereo unspecified)	0.1
CC(C)N1CCc2c(sc(N)c2C#N)C1	i
O=c1[nH]c(=O)n(Cc2ccco2)c(O)c1C=NCCCn1ccnc1	0.8
COC(=O)c1ccccc1NC(=O)C1CCN(C(=O)c2cc(OC)cc(OC)c2)CC1	0.4
CC(C(=O)NCc1ccco1)n1nc(-c2ccccc2)c2cc(Cl)ccc21 (stereo unspecified)	i
CCNC(=S)NNC(=O)c1cccc(Br)c1	i
COc1ccc(S(=O)(=O)N(C)C2CCN(C)CC2)cc1	i
CC(C)c1cc(C(=O)Nc2cccnc2)no1	0.5
COc1ccc2c(c1)CC(C1(O)C(=O)N(C)c3ccccc31)C2=O (stereo unspecified)	i
Cc1nc(CCNC(=O)Cc2ccc(Cl)cc2)cs1	i
CC(C)CCCNc1nc(N2CCOCC2)nc(N2CCOCC2)n1	1.0
Cc1nc2ccccc2c(=O)n1C1CCCCCC1	1.8
CN1C(=O)C2(C(C#N)=C(N)N(c3cc(Cl)cc(Cl)c3)C3=C2C(=O)CCC3)c2ccccc21 (stereo unspecified)	1.0
CC(C)(C)c1ccc(S(=O)(=O)NCCOCC(F)(F)C(F)F)cc1	0.1
O=C(CSc1nc2ccccc2[nH]1)c1ccc(Cl)s1	i
CC1CC(C)CN(S(=O)(=O)c2ccc(C(=O)NCCCn3ccnc3)cc2)C1 (stereo unspecified)	i
O=C(CSc1nnc(Nc2ccccc2)s1)NCc1ccco1	i
CN1CCC(N(C)CC(=O)Nc2cccc(Oc3ccccc3)c2)CC1	i
O=C(N/C(=C/c1ccc2c(c1)OCO2)C(=O)N1CCOCC1)c1cccs1	0.0
CC1=CC(C)(C)N(C(=O)CN2C(=O)c3ccccc3C2=O)c2ccccc21	2.1
CCOC(=O)c1cc2c(ccn2-c2ccc(F)cc2)n1CC(=O)N1CCN(C(=O)c2ccco2)CC1	0.5
CCOC(=O)c1c(NC(=S)Nc2ccccc2)sc2c1CCN(CCc1ccccc1)C2	0.3
CC(/C=C1\SC(=O)N(CC(=O)Nc2cccc(O)c2)C1=O)=C\c1ccccc1	i
CCCCOc1ccc(S(=O)(=O)Nc2cc(OC)ccc2OC)cc1	0.4
CN(CC(=O)NCCN1CCN(Cc2ccccc2)CC1)S(=O)(=O)c1cccc2nsnc12	i
CN(CCO)C(=O)c1cccc2c1-c1ccccc1C2=O	i
CCCCCn1c(Sc2nc3ccccc3s2)nc2c1c(=O)[nH]c(=O)n2C	1.2
COCCn1c(SCC(=O)NC(=O)NC(C)C)nc2ccccc21	i
CCCCc1cc(=O)oc2c(CN(CC)CC)c(O)c(Cl)cc12	0.5
Cc1cc(C(=O)COc2ncnc3sccc23)c(C)n1C	0.7
CC(=O)Nc1ccnc(-c2cccnc2)n1	0.4
CCC(=O)c1cn(Cc2ccc(C#N)cc2)c2ccccc12	0.9
Cc1cc(C(=O)N(C)CC(=O)Nc2ccccc2C(F)(F)F)c(C)o1	1.2
CN(C)CCNC(=S)Nc1cccc(Cl)c1	i
CC(C)N(C(=O)c1sc2cc([N+](=O)[O-])ccc2c1Cl)C(C)C	i
Cn1c(SCC(=O)OC2CCCCC2)nnc1-c1ccc(S(=O)(=O)N2CCCC2)cc1	2.2
CCS(=O)(=O)c1ccc(-c2csc(-c3ccc(Cl)cc3)n2)c(Cl)c1Cl	i
Cc1cc(CNC(=O)Nc2ccc3c(c2)OCO3)nn1C	i
O=C(Nc1ccccc1[N+](=O)[O-])C1=C(O)CCn2c1nc1ccccc12	2.1
The list goes on.
SMILES	H5N1 CPE
CCN(Cc1cc2ccccc2[nH]c1=O)S(=O)(=O)c1ccccc1	0.9
O=C(Nc1ccccc1)c1cccnc1N1CCOCC1	i
COc1ccccc1NS(=O)(=O)c1cccc(C(=O)OCC(=O)Nc2cc(C)on2)c1	i
CCOc1cccc(CNC2CN3CCC2CC3)c1 (stereo unspecified)	i
C=CCn1c(SCCN2C(=O)c3ccccc3C2=O)nc2scc(-c3ccccc3)c2c1=O	i
CC1CCN(CCOCCOc2ccc(Cl)cc2Br)CC1	i
COc1ccc(/C=N/NC(=O)C(=O)N2CCN(c3ccccc3OC)CC2)cc1	0.2
O=S(=O)(c1ccc2ccccc2c1)N1CCCCC1	2.3
CCC(c1nnnn1CCc1ccccc1)N(Cc1ccco1)Cc1cc2c(C)ccc(C)c2[nH]c1=O (stereo unspecified)	i
COc1ccc(-c2nnn(CC(=O)N(Cc3cccs3)C(C)C(=O)NC3CCCC3)n2)cc1OC (stereo unspecified)	i
O=C(NC1CCN(C(=O)N2c3ccccc3Sc3ccccc32)CC1)c1ccccc1Cl	0.6
CN(NC(=O)C(C)(C)C)c1nc(-c2ccccc2)nnc1C(F)(F)F	i
CCOC(=O)c1c(NC(C)=O)sc2c(OC)c(Br)ccc12	i
CC(C)OC(=O)C(C#N)c1nc2ccccc2nc1N1CCCC1 (stereo unspecified)	1.3
CC(Sc1nc2ccccc2c(=O)[nH]1)C(=O)O (stereo unspecified)	1.2
CCOc1ccc(C2C(C#N)=C(N)Oc3cc(C)n(CCN(C)C)c(=O)c32)cc1OCC (stereo unspecified)	0.5
CNC(=O)c1ccccc1S(=O)(=O)c1ccccc1C#N	0.3
CC1CCN(S(=O)(=O)c2cc(Br)cc(C(=O)NC3=NCCS3)c2)CC1	0.2
Cc1cccc(Cn2c(=O)c3c(nc4n3CCCN4Cc3ccccc3)n(C)c2=O)c1	2.4
CCOC(=O)c1c(C)sc2c1N(C(=O)CCl)c1cc(Cl)ccc1S2	i
CCOc1nc(C#N)nc(N2CCCCC2)n1	i
CCOC(=O)N1CCN(C(=O)c2csc3c2CCCCC3)CC1	0.8
Cc1cc(NC(=O)CSc2n[nH]c(-c3cccs3)n2)no1	2.1
Cc1ccc(NC(=S)NCc2ccccn2)cc1	i
COCCNC(=O)Cn1ncc2ccsc2c1=O	1.1
Cc1ccccc1C(=O)Nc1c(C(=O)N2CCCC2)cnn1-c1ccccc1	0.6
CCCCc1nnc(NC(=O)CSc2nc(C)cc(=O)[nH]2)s1	i
O=C(NCCCNC1CCCCC1)c1ccc(/C=N/O)nc1	i
Oc1c(C(c2cccc(F)c2)N2CCN(Cc3ccccc3)CC2)sc2ncnn12 (stereo unspecified)	0.6
CC(C)(C)NC(=O)CSc1nc2ccc(NC(=O)CSc3nnnn3Cc3ccccc3)cc2s1	i

Reprinted at random: two records from the list, in no set order.
SMILES	H5N1 CPE
CCOC(=O)N1CCN(C(=O)c2csc3c2CCCCC3)CC1	0.8
CCOc1nc(C#N)nc(N2CCCCC2)n1	i

The listing continues.
SMILES	H5N1 CPE
COC(=O)c1nc2ccc(C)cn2c1F	3.8
Cc1ccccc1-c1noc(N)c1C#N	0.3
CCCCNC(=O)CN1C(=O)NC2(CCCc3ccccc32)C1=O (stereo unspecified)	i
Cn1c(Cn2nnc3ccccc32)nnc1SCC(=O)c1ccc(F)cc1	0.7
N#Cc1nc(COc2ccc(Br)cc2)oc1NCCN1CCOCC1	i
CCN(CC1COc2ccccc2O1)C(=S)Nc1ccccc1 (stereo unspecified)	0.4
NC(=O)c1c(NC(=O)CN2C(=O)CCC2=O)sc2c1CCCCC2	0.7
Cc1ccc(C2=[N+]([O-])C3(CCCCC3=O)N(O)C2(C)C)cc1 (stereo unspecified)	0.6
Cc1ccc(NC(=O)NC(=O)CN2C(=O)NC3(CCCCCCC3)C2=O)c(C)c1	2.2
CCn1c(CNc2ccc(Cl)cc2)nnc1SCC(=O)NCc1ccccc1	i

Part of the list above, with bars between the fields.
compound | H5N1 CPE
C=CCc1cccc2cc(C(=O)NCc3cccnc3)c(=O)oc12 | 2.3
COc1cc2c(C(=O)N3CCN(C)CC3)c(C)n(C)c2cc1Br | 0.7
COc1cccc(N2C(=O)C3ON(c4ccccc4)C(c4cccs4)C3C2=O)c1 (stereo unspecified) | 0.1
CC(C)N1CCc2c(sc(N)c2C#N)C1 | i
O=c1[nH]c(=O)n(Cc2ccco2)c(O)c1C=NCCCn1ccnc1 | 0.8
COC(=O)c1ccccc1NC(=O)C1CCN(C(=O)c2cc(OC)cc(OC)c2)CC1 | 0.4
CC(C(=O)NCc1ccco1)n1nc(-c2ccccc2)c2cc(Cl)ccc21 (stereo unspecified) | i

The list goes on.
SMILES	H5N1 CPE
CSc1nc2nc(C)cc(-c3ccccc3)n2n1	0.4
N#CCSc1nnc(C2CCCCC2)n1-c1ccccc1	i
OC1C=CSc2nc3ccccc3n21 (stereo unspecified)	1.2
O=c1[nH]c(=O)n(C2CCCCC2)c(O)c1C=NCCCn1ccnc1	i
CCN1/C(=C\C(C)=O)Sc2ccc(OC)cc21	0.8
O=C(O)CN1C(=O)c2cccc(Oc3ccc(Cl)cc3)c2C1=O	0.2
CC1(C(=O)N(CC(=O)NC2CCCC2)C2CCCC2)CC(=O)N=C2C=CC=CN21 (stereo unspecified)	0.8
S=C(Nc1ccc(Cl)cc1)NC1CC2CCCC(C1)N2C1CC1 (stereo unspecified)	i
Cn1c(C(=O)N2CCc3ccccc3C2)cc2c(=O)n3ccccc3nc21	i
COc1cccc2[nH]c3c(N4CCC(C(N)=O)CC4)ncnc3c12	0.6
COc1ccc(OC2C(=O)N(CCc3ccc(OC)c(OC)c3)C2c2ccc3c(c2)OCO3)cc1 (stereo unspecified)	1.7
Cc1ccc(C(c2nnnn2Cc2cccs2)N2CCN(Cc3ccc4c(c3)OCO4)CC2)cc1 (stereo unspecified)	i
CCCc1nnc(SCC(=O)N2CCOCC2)n1CCCOC	i
O=C(/C=C/c1cccnc1)c1ccc(NC(=O)c2cccc(Br)c2)cc1	2.1
COC(=O)CSc1nc2c(c(-c3ccc(C)o3)c1C#N)CCCC2	0.1
COC(=O)C1=C(C)N(C(C)C)C(=O)C1(NC(C)=O)C(F)(F)F (stereo unspecified)	i
COC(=O)C1C(=O)OC(C)(C)C1C(C)C(=O)c1ccccc1 (stereo unspecified)	0.6
N#Cc1c(SCC(=O)OCc2ccccc2)nsc1SCC(=O)OCc1ccccc1	i
COc1cc2c(cc1OC)C(C(=O)N1CCOCC1)C(c1cccs1)N(C)C2=O (stereo unspecified)	i
Oc1ccc(N2CCN(C(c3ccncc3)c3nnnn3C3CCCC3)CC2)cc1 (stereo unspecified)	1.5
COc1ccc(NC(=O)N2Cc3ccccc3CC2C(=O)NC(C)(C)C)cc1 (stereo unspecified)	i
CCCCCCCCN=C1NC(=O)CS1	1.2
O=C(CN1C(=O)c2ccccc2S1(=O)=O)NCCSc1ccccc1	i
CCn1c(SCc2ccc([N+](=O)[O-])cc2)nnc1C(C)NC(=O)c1ccccc1Br (stereo unspecified)	i
COc1ccc(-n2c(Cc3cccn3C)nnc2SCC(=O)Nc2ccc(C(C)=O)cc2)cc1	1.5
Cc1nn(-c2nnc(C)c(=O)[nH]2)c(C)c1SCC(=O)Nc1ccc(C(C)C)cc1	0.7
